Screens (PubChem BioAssay)
Ecoli rRNA inh: selective bacterial rRNA inhibition in E. coli; E. coli WT GFP vs humanized-ribosome RFP mutants, fluorescence, 24 h; stronger effect = lower value; DMSO median 0, no signal -100; GFP signal change (wild-type ribosome), % (test concentration not listed); AID 720706; 1.6% of 350,000 active;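 active = significant combined selectivity score with lowered wild-type GFP, culture density cut under 30%, mutant RFP and density less affected; inactive = any of these conditions unmet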; note: one replicate is shown; some compounds called inactive have numbers as strong as hits
FGF22 binding: shifts melting point of recombinant human FGF22 | Q9HCT0 | recombinant FGF22 thermal shift, SYPRO orange fluorescence; percent of sucrose octasulfate shift, DMSO zero | calls only at 9.99 µM | 1.5% of 340,000 active;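 active = melting point raised past a set limit in the mean and every replicate; inconclusive = no clear call; three in four hits are not shown here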
Target sequence (Q9HCT0 whole entry, looked up): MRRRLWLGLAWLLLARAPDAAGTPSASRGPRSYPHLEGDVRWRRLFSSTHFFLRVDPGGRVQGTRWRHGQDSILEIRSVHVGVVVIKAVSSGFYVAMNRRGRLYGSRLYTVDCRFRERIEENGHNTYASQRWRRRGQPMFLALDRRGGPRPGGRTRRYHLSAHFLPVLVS
MLL AF4-AF9 inh: blocks AF4 peptide binding to human AF9. P42568. AlphaScreen, biotin-AF4 peptide binding to FLAG-AF9. inhibition, % at 10 µM. 0.47% of 350,000 active. AID 651704;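 active = every replicate reaching a set inhibition limit, whatever the replicate mean, cut at about 25% in these data; inconclusive = mean inhibition reaches that limit but some replicates miss it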;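 note: 0% = plate neutral control median and 100% = total signal loss; the record names both 10 and 1 µM as test concentration; the first replicate is given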
Target sequence (P42568 whole entry, looked up): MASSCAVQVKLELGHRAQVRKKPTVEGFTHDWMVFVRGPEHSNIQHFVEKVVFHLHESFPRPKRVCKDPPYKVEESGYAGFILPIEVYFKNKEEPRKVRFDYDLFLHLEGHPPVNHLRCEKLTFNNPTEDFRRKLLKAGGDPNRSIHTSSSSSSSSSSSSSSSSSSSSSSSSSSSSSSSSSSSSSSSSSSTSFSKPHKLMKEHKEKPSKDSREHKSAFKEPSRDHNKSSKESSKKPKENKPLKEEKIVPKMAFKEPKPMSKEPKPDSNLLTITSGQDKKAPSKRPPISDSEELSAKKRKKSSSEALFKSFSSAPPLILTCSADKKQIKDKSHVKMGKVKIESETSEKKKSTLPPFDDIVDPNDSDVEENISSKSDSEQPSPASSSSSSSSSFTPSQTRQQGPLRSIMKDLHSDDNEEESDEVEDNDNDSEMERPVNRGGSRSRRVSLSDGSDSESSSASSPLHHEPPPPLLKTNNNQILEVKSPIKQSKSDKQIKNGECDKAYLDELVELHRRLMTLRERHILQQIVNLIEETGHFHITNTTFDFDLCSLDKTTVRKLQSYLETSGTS
Ecoli rRNA inh OD600: further read-out of Ecoli rRNA inh, marked with its call; OD600 change, %; measured here: OD600 growth;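 optical density of the mix in the first replicate; 0 = DMSO median and -100 = no signal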
Ecoli rRNA inh RFP: second read-out of Ecoli rRNA inh, no call of its own (marks repeat the call); RFP signal change, %; measured here: RFP humanized mutant strains;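 first replicate; 0 = DMSO median and -100 = no signal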
The depositor's hits bear a star; i = inactive; u = inconclusive; & = joins results of further samples. Some of the compounds tested; the hit share may differ from the screen's.

SMILES	Ecoli rRNA inh	Ecoli rRNA inh OD600	Ecoli rRNA inh RFP	FGF22 binding	MLL AF4-AF9 inh
C[C@@H]1CN([C@H](C)CO)C(=O)Cc2cc(NS(=O)(=O)c3ccc(Cl)cc3)ccc2O[C@@H]1CN(C)S(=O)(=O)c1ccc(F)cc1	-0.8	-12.0	2.8	i	0.3
CCCc1cn(CC[C@@H]2CC[C@H](NC(=O)Nc3ccccc3F)[C@@H](CO)O2)nn1	-0.6	2.4	-0.2	i	4.3
CN1C(=O)c2cc(NC(=O)c3ccccc3)ccc2OC[C@H]2O[C@@H](CC(=O)NC3CCCC3)CC[C@H]21	-6.2	-7.7	3.2	i	-1.4
C[C@@H]1CN([C@H](C)CO)C(=O)Cc2cc(NC(=O)Nc3ccc(F)cc3)ccc2O[C@H]1CN(C)S(=O)(=O)c1ccc(Cl)cc1	-3.8	-7.0	0.2	i	0.8
C[C@@H]1CN([C@H](C)CO)C(=O)c2cccc(NC(=O)c3cnccn3)c2O[C@@H]1CN(C)C(=O)Nc1ccc2c(c1)OCO2	2.8	2.0	-1.4	i	-0.7
CN(C)CC(=O)Nc1ccc2c(c1)[C@H]1C[C@H](CC(=O)NCc3ccc(Cl)cc3)O[C@H](CO)[C@H]1O2	-0.4	-0.5	-1.2	i	0.3
CCCNC(=O)N(C)C[C@@H]1Oc2ncc(-c3ccc(C(=O)N(C)C)cc3)cc2C(=O)N([C@H](C)CO)C[C@H]1C	3.4	10.0	-1.9	i	-6.7
COc1ccc(S(=O)(=O)Nc2ccc3c(c2)C(=O)N([C@@H](C)CO)C[C@H](C)[C@@H](CN(C)C(=O)Nc2ccc(C(F)(F)F)cc2)OCCCC[C@@H](C)O3)cc1	4.8	-0.8	1.9	i	-2.0
CCS(=O)(=O)N[C@@H]1CC[C@H](CC(=O)NC2Cc3ccccc3C2)O[C@H]1CO	-0.1	8.9	1.5	i	-14.8
CCCNC(=O)N1CC(=O)N2[C@H](CO)[C@H](c3ccc(-c4cccc(C)c4)cc3)[C@@H]2C1	-3.7	11.0	3.3	i	-11.8
C[C@@H]1CN([C@@H](C)CO)C(=O)c2cc(NC(=O)Nc3ccc(C(F)(F)F)cc3)ccc2O[C@@H](C)CCCCO[C@@H]1CN(C)Cc1ccccc1	4.6	-0.2	0.6	i	-1.0
Cc1ccc(F)c(S(=O)(=O)NC(=O)C2(C)CCN2C(=O)CC2CCCCC2)c1 (centres undefined)	1.4	7.1	-1.6	i	-0.9
COc1cc2c(=O)n(C)c3ccccc3c2cc1OC	-4.6	2.3	0.7	i	-0.6
C[C@H](CO)N1C[C@H](C)[C@H](CN(C)C(=O)C2CCCCC2)Oc2ncc(C#Cc3ccccc3F)cc2C1=O	-3.2	-30.8	27.2	i	1.8
C/C=C/c1ccc([C@@H]2[C@H](CO)N(CCC(F)(F)F)C23CN(C(=O)CC)C3)cc1	-1.3	2.5	1.0	i	-2.7
COc1ccc(NC(=O)Nc2ccc3c(c2)C(=O)N([C@@H](C)CO)C[C@H](C)[C@@H](CN(C)Cc2ccc4c(c2)OCO4)OCCCC[C@@H](C)O3)cc1	1.8	-13.3	8.4	i	u
CCC(=O)Nc1ccc2c(c1)C(=O)N(C)C[C@H](OC)[C@@H](C)CN(Cc1ccccc1)[C@H](C)CO2	-4.9	-13.4	2.1	i	-5.9
O=C([C@H]1[C@H](CO)[C@H]2Cn3c(cccc3=O)[C@@H]1N2Cc1cccc(Cl)c1)N1CCOCC1	4.1	1.1	-0.4	i	-2.2
Cc1ccc(S(=O)(=O)N(C)C[C@H]2OCCCC[C@@H](C)Oc3ccc(NS(=O)(=O)c4ccc(Cl)cc4)cc3C(=O)N([C@@H](C)CO)C[C@@H]2C)cc1	-0.3	-29.2	1.6	i	9.3
C[C@@H]1CN([C@H](C)CO)C(=O)Cc2cc(NC(=O)NC3CCCCC3)ccc2O[C@H]1CN(C)C(=O)Nc1cccc2ccccc12	3.5	4.5	2.8	i	0.2
C[C@H]1CN([C@@H](C)CO)C(=O)c2cccc(NS(=O)(=O)c3cccs3)c2O[C@@H]1CN(C)Cc1ccccc1	5.7	3.1	4.5	i	-0.2
C[C@@H]1CN([C@@H](C)CO)C(=O)c2cc(NS(=O)(=O)c3cn(C)cn3)ccc2O[C@@H](C)CCCCO[C@H]1CN(C)C(=O)Cc1ccccc1	-1.8	0.8	-1.7	i	-0.2
COc1ccc2c3c([nH]c2c1)[C@H](CO)N(C(=O)CC1CC1)CC31CN(Cc2cccnc2)C1	-1.4	9.0	-2.7	i	2.6
CO[C@@H]1CN(C)C(=O)c2ccc(NC(=O)C3CCOCC3)cc2OC[C@H](C)N(CC2CC2)C[C@@H]1C	4.2	2.8	-1.8	i	-10.6
COC(=O)[C@@H]1[C@@H](CO)[C@@H]2Cn3c(ccc(-c4ccccc4F)c3=O)[C@@H]2N1CC1CCCC1	-3.8	-2.0	10.8	i	-1.6
COc1cccc(-c2ccc([C@@H]3[C@@H](CO)N(C(C)=O)C34CN(C(C)=O)C4)cc2)c1	-1.6	-2.5	-0.8	i	0.3
COc1ccccc1-c1ccc2n(c1=O)C[C@H]1[C@H](CO)[C@@H](C(=O)N3CCN(C)CC3)[C@@H]2N1CC1CC1	1.4	8.0	3.3	i	-1.2
Cc1ccccc1S(=O)(=O)N1CCCCN2[C@H](CO)[C@H](c3ccc(-c4cccnc4)cc3)[C@H]2C1	-0.5	-14.6	10.9	i	6.7
CCC(=O)N1[C@H](CO)[C@@H](c2ccccc2)C12CN(Cc1cccnc1)C2	3.1	3.7	-0.8	i	2.1
CCC(=O)Nc1ccc2c(c1)OC[C@H](C)N(Cc1ccccn1)C[C@H](C)[C@H](OC)CN(C)C2=O	3.3	6.7	-1.9	i	1.9

Random excerpt: 3 compounds from above, in no set order.
SMILES	Ecoli rRNA inh	Ecoli rRNA inh OD600	Ecoli rRNA inh RFP	FGF22 binding	MLL AF4-AF9 inh
Cc1ccccc1S(=O)(=O)N1CCCCN2[C@H](CO)[C@H](c3ccc(-c4cccnc4)cc3)[C@H]2C1	-0.5	-14.6	10.9	i	6.7
CCC(=O)N1[C@H](CO)[C@@H](c2ccccc2)C12CN(Cc1cccnc1)C2	3.1	3.7	-0.8	i	2.1
COc1cccc(-c2ccc([C@@H]3[C@@H](CO)N(C(C)=O)C34CN(C(C)=O)C4)cc2)c1	-1.6	-2.5	-0.8	i	0.3

The listing continues:
SMILES	Ecoli rRNA inh	Ecoli rRNA inh OD600	Ecoli rRNA inh RFP	FGF22 binding	MLL AF4-AF9 inh
COc1ccc(S(=O)(=O)Nc2ccc3c(c2)C(=O)N([C@@H](C)CO)C[C@H](C)[C@@H](CN(C)S(C)(=O)=O)O3)cc1	-1.6	0.4	-2.2	i	-9.9
C[C@@H]1CN([C@@H](C)CO)S(=O)(=O)c2ccc(/C=C/c3ccccc3)cc2O[C@@H]1CN(C)C(=O)Nc1ccc(F)cc1	2.3	1.9	-2.5	i	1.8
CN1C(=O)c2cc(NC(=O)NC3CCCC3)ccc2OC[C@H]2O[C@@H](CC(=O)NCC3CC3)CC[C@H]21	3.0	8.3	-1.3	i	-5.5
C[C@@H]1CN([C@H](C)CO)C(=O)c2cccc(NC(=O)Nc3ccccc3)c2O[C@H]1CN(C)C(=O)Nc1cccc2ccccc12	-4.1	-4.1	-1.5	i	1.0
Cc1cc(OCC(=O)OCC(=O)N2CCCc3ccccc32)ccc1Cl	-0.8	-5.1	-2.9	i	0.0
O=C(O)C1CCN(C(=O)c2ccc(S(=O)(=O)N3CCCCCC3)cc2)CC1	3.0	18.8	-0.1	i	-2.4
C/C=C/c1ccc([C@@H]2[C@H](CO)N(Cc3cccc(F)c3)C23CN(C(=O)CC)C3)cc1	-1.5	-35.1	25.6	i	3.8
COc1ccc(-c2ccc3c(c2)O[C@H](CN(C)C(=O)Nc2ccccc2F)[C@H](C)CN([C@@H](C)CO)S3(=O)=O)cc1	-2.9	-6.1	0.0	i	3.8
Cc1ccc(S(=O)(=O)N[C@H]2CC[C@H](CCNC(=O)C3CC3)O[C@@H]2CO)cc1	1.1	-4.8	-1.9	i	0.3
O=C(NCC[C@H]1CC[C@H](NC(=O)C2CCC2)[C@H](CO)O1)c1cnccn1	-2.3	0.5	4.9	i	-16.0
COc1ccc(S(=O)(=O)Nc2ccc3c(c2)C(=O)N([C@@H](C)CO)C[C@H](C)[C@@H](CN(C)C(=O)CCC(F)(F)F)OCCCC[C@H](C)O3)cc1	-1.5	-10.8	5.6	i	-4.1
C[C@@H]1CN([C@@H](C)CO)C(=O)c2cc(NC(=O)CCCCCC(=O)Nc3ccccc3N)ccc2O[C@@H]1CN(C)Cc1ccncc1	3.8	-0.6	1.5	i	-0.8
CCCC#Cc1ccc([C@H]2[C@H](CO)N3CCCCN(Cc4cccnc4)C[C@@H]23)cc1	-10.9	4.7	0.3	i	-0.2
C[C@@H]1CN([C@@H](C)CO)C(=O)Cc2cc(NC(=O)Nc3ccccc3)ccc2O[C@@H]1CN(C)C(=O)Nc1cccc2ccccc12	2.6	1.2	-1.0	i	0.5
COc1cccc(S(=O)(=O)N[C@@H]2C=C[C@H](CC(=O)NC3Cc4ccccc4C3)O[C@@H]2CO)c1	-8.0	-12.2	-2.7	i	-4.9
O=S1(=O)C[C@@H](N2CCC(Cc3ccccc3)CC2)[C@H](COCc2ccccc2)N1	-13.7	-39.1	9.1	i	0.3
COc1ccc(CNC(=O)C[C@H]2C[C@@H]3c4cc(NC(=O)NC5CCCC5)ccc4O[C@@H]3[C@@H](CO)O2)cc1	-3.9	-6.5	-0.8	i	-1.2
CC(C)c1cn(CC[C@H]2CC[C@@H](NS(=O)(=O)Cc3ccccc3)[C@H](CO)O2)nn1	2.0	1.6	-1.9	i	0.7
COc1cccc(S(=O)(=O)N(C)C[C@@H]2Oc3ncc(C#CC(C)C)cc3C(=O)N([C@H](C)CO)C[C@@H]2C)c1	-1.8	-7.6	0.8	i	-0.5
CN1CCN(S(=O)(=O)c2ccc(Cl)c(C(F)(F)F)c2)CC1	4.0	2.3	1.3	i	0.0

Brought forward from above: 2 compounds; new compounds follow.
SMILES	Ecoli rRNA inh	Ecoli rRNA inh OD600	Ecoli rRNA inh RFP	FGF22 binding	MLL AF4-AF9 inh
COc1cccc(S(=O)(=O)N(C)C[C@@H]2Oc3ncc(C#CC(C)C)cc3C(=O)N([C@H](C)CO)C[C@@H]2C)c1	-1.8	-7.6	0.8	i	-0.5
CN1CCN(S(=O)(=O)c2ccc(Cl)c(C(F)(F)F)c2)CC1	4.0	2.3	1.3	i	0.0
CC(=O)Nc1cccc(-c2csc(C(O)c3ccccc3)n2)c1 (centres undefined)	-8.7	2.3	-1.2	i	-3.1
CCOC(=O)C1(C)CCCN(C(=O)c2ccc(C#N)cc2)C1 (centres undefined)	9.4	13.4	2.2	i	0.3
CNC[C@@H]1Oc2c(NC(=O)C3CCOCC3)cccc2C(=O)N([C@@H](C)CO)C[C@H]1C	1.7	0.2	-3.0	i	-18.1
CC(C)C#Cc1ccc([C@@H]2[C@@H](C#N)N(C(=O)c3cccc(F)c3)[C@@H]2CO)cc1	-0.7	-45.9	26.9	i	2.9
O=C(Nc1ccccc1F)N1CCCCN2[C@H](CO)[C@@H](c3ccc(-c4cccnc4)cc3)[C@H]2C1	6.0	12.4	-3.3	i	2.2
C[C@@H]1CN([C@H](C)CO)S(=O)(=O)c2ccc(-c3cccnc3)cc2O[C@H]1CN(C)C(=O)CN(C)C	2.9	6.7	-1.6	i	1.4
CNC[C@H]1Oc2ccc(NC(=O)Nc3ccc(C(F)(F)F)cc3)cc2C(=O)N([C@H](C)CO)C[C@@H]1C	-2.5	2.6	3.3	i	5.0
CN1CCN(C(=O)C[C@H]2C[C@@H]3c4cc(NC(=O)c5ccc6c(c5)OCO6)ccc4O[C@@H]3[C@H](CO)O2)CC1	-0.3	-4.3	1.8	i	-1.4
COc1ccc2c3c(n(C)c2c1)[C@H](CO)N(C(C)=O)CC31CN(S(=O)(=O)c2ccccc2)C1	-4.8	-1.7	-1.4	i	4.7
CC(=O)NC1CC2CCCC(C1)N2C(=O)Nc1cccc(Cl)c1 (centres undefined)	12.9	8.8	3.4	i	-2.7
CCc1nc2ccc(C(=O)Nc3cccc(OC)c3)cn2c1N(CC)Cc1cccc(Br)c1	-3.4	4.2	3.7	i	-3.4
COc1ccc(CNC(=O)C[C@@H]2CC[C@@H](NC(=O)Nc3ccc4c(c3)OCO4)[C@@H](CO)O2)cc1	0.6	3.6	-1.7	i	-10.9
N#Cc1ccc(-c2ccc3c(c2)[C@H]2[C@H](CCN2C(=O)c2ccc4c(c2)OCO4)[C@@H](CO)N3)cc1	-2.9	-21.1	10.2	i	-3.5
CN(C)Cc1cn(CC[C@@H]2CC[C@H](NC(=O)Cc3cccnc3)[C@H](CO)O2)nn1	1.5	12.2	-1.5	i	-3.4
C[C@@H]1CN([C@@H](C)CO)C(=O)c2cc(-c3ccccc3)cnc2O[C@H]1CN(C)C(=O)Nc1ccc2c(c1)OCO2	-0.7	1.7	-1.1	i	4.3
C[C@H](CO)N1C[C@H](C)[C@H](CN(C)C(=O)c2ccc(N3CCN(C)CC3)cc2)OCc2cnnn2CCCC1=O	6.0&0.8	15.4&4.2	-1.2&1.6	i	-0.8&-1.8
COC(=O)c1ccc2nc(-c3cccc(Br)c3)c(Cc3ccc(OC)cc3C)n2c1	-18.8	2.0	12.1	i	-0.1
